# Screening results deposited in PubChem BioAssay by several laboratories.
# TNAP activation fold: human TNAP enzyme activators, primary screen, biochemical, luminescent, no phosphate acceptor, uHTS (AID 1001). purified TNAP, luminescent activation assay, no phosphate acceptor; higher activation fold means a stronger effect. one-dose activation fold at 20 µM; EC50 in µM for titrated hits. 200,000 compounds, 0.03% hits; in the data active = activation fold from about 3, or a potency from the dose series; inactive = the rest, 99 in 100 with activation fold below about 1.6; also: many of its hits are not listed in these tables
# ER stress rescue: rescue of cells from ER stress-induced death, primary screen, 384-well, CSM14.1, thapsigargin, ATP luminescence (AID 1222); CSM14.1 thapsigargin-induced death rescue, ATP luminescence; higher % means a stronger effect; one-dose cellular ATP content (survival), % at 20 µM; EC50 in µM for titrated hits; 190,000 tested, under 10 active;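 active = EC50 below 50 µM in the dose-response confirmation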;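 also: death triggered by thapsigargin at about 15 µM added after 2 h compound pretreatment; cell ATP read after overnight thapsigargin exposure of roughly 18 to 22 hours; normalized against plate controls of thapsigargin alone and 5% DMSO vehicle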
# RSV CPE inhibition: RSV antiviral activity via CPE protection, HEp-2 cells, primary 10 µM value included (AID 2391); one-dose CPE inhibition, % at 10 µM; IC50 in µM for titrated hits; 310,000 compounds, 0.13% hits; HEp-2 cells, RSV-induced CPE inhibition; higher % means a stronger effect; in the data active = a potency from the dose series; inconclusive = CPE inhibition mostly from about 23% at the one dose, without a potency; inactive = the rest, 99 in 100 with CPE inhibition below about 21%; also: strong numbers were not always called active
# PhoP inhibition: PhoP-dependent GFP reporter repression – Salmonella Typhimurium, primary screen (AID 1863) | S. Typhimurium PhoP-regulated promoter GFP reporter, 4 h; higher % means a stronger effect | one-dose inhibition, % at 50 µM; IC50 in µM for titrated hits | 300,000 compounds, 0.16% hits;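 active = inhibition over 29.93%, a cutoff 3 SD above the screen mean, later confirmed by dose response; inconclusive = inhibition over 29.93% but no dose response follow-up; inactive = inhibition at most 29.93% or unconfirmed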;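 also: 0% = low Mg2+ inducing control and 100% = high Mg2+ repressing control; strong numbers were not always called active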
# Large T inhibition: SV40 large T antigen inhibitors, biochemical (AID 1903); SV40 large T antigen ATPase/helicase inhibition assay; higher % means a stronger effect; inhibition, % at 20 µM, or IC50 in µM where a hit was titrated; 310,000 compounds, 0.39% hits; in the data active = a potency from the dose series; inconclusive = inhibition mostly from about 32% at the one dose, without a potency; inactive = the rest, 99 in 100 with inhibition below about 32%; also: strong numbers were not always called active
# Ins promoter up: MIN6 insulin promoter up-regulation | MIN6 insulin promoter-GFP reporter, high-content imaging; active compounds read high | z-score at 5 µM | 190,000 compounds, 0.3% hits | AID 1625;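 active = z-score above 3 at 5 µM with at least 500 cells counted in the well; inconclusive = wells under 500 cells, flagged as cytotoxic or low count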
# West Nile antiviral: inhibition of WNV-induced cytopathic effect – cell-based, CPE readout (AID 1621) | West Nile virus-infected cells, CPE inhibition; higher % means a stronger effect | CPE inhibition, % at 10 µM; hits with a dose series show IC50 in µM | 290,000 compounds, 0.02% hits; in the data active = a potency from the dose series; inconclusive = CPE inhibition mostly from about 3.7% at the one dose, without a potency; inactive = the rest, 99 in 100 with CPE inhibition below about 2.2%; also: strong numbers were not always called active
# Ins promoter up cell count: second read-out of Ins promoter up, no call of its own (marks repeat the call); cell count; measured here: cytotoxicity, nuclei count;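 total cells summed across four imaged fields per well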
# The depositor's hits bear a star; ? = inconclusive; / = not tested or not shown. Not all compounds are listed; count on the stated rates, not on these rows.
SMILES,TNAP activation fold,ER stress rescue,RSV CPE inhibition,PhoP inhibition,Large T inhibition,Ins promoter up,Ins promoter up cell count,West Nile antiviral
COC(=O)c1cn(NC(=O)C2CCC(C(C)(C)C)CC2)c(=O)c2ccccc12 (stereo not given),1.1,1.3%,2.4%,2%,1%,-0.7,1594,-0.5%
Cc1ccc(-c2csc(Cc3nc(-c4cc5ccccc5oc4=O)cs3)n2)cc1,1.1,-1.7%,1.8%,4%,17%,-0.07,1658,-0.5%
CCN(CC)S(=O)(=O)c1ccc(Cl)c(NC(=O)c2ccccc2C)c1,1.1,1.7%,2.3%,-1%,-6%,/,/,-0.3%
CC(C)Oc1ccc(/C(O)=C2/C(=O)C(=O)N(Cc3cccnc3)C2c2ccco2)cc1 (stereo not given),1,1.9%,5.7%,-6%,6%,/,/,0.1%
CCOc1ccc(N2C(=O)CC(Sc3nc(-c4cccs4)cc(C(F)(F)F)c3C#N)C2=O)cc1 (stereo not given),1,4.1%,3.2%,-14%,11%,/,/,0.2%
COc1ccc(NC(=O)COC(=O)CCCc2c[nH]c3ccccc23)cc1OC,1.2,-1.4%,0.2%,-17%,5%,-0.43,1376,-0.1%
CCC(C)[C@H](NC(=O)NCc1ccccn1)C(=O)OC (stereo not given in full),1.1,-1.2%,0.8%,-11%,7%,-0.86,1465,0.8%
Cc1cc(OCC(F)(F)C(F)(F)C(F)(F)C(F)F)nc(N)n1,1,-0.7%,0.8%,-4%,4%,0.6,1645,0.1%
Cc1cccc(NC(=S)NCc2ccccn2)c1,1,-1.6%,0.5%,-4%,2%,0.01,1485,0.1%
CCOC(=O)N1CCC(n2c(SCC(=O)c3ccccc3)nc3ccsc3c2=O)CC1,1.1,0.1%,0.5%,-3%,3%,-1,1404,-1.4%
COCCN1CN=C(Nc2nc3ccccc3o2)NC1,1,-0.5%,4.2%,18%,9%,-0.04,1580,0.2%
CSc1nnc(-c2ccc(Cl)cc2Cl)o1,1.1,0.4%,30%,14%,12%,0.2,1595,0.3%
O=C(Nc1nc(-c2ccccc2)c(-c2ccccc2)o1)c1ccc(F)cc1,1.1,17%,7.3%,-5%,-6%,-0.66,1456,0.5%
CCn1c(Cc2ccccc2)nnc1SCC(=O)c1cccc([N+](=O)[O-])c1,1.1,0.1%,2.4%,1%,6%,-0.62,1632,-1.0%
CCCCn1c(Cl)nc2c1c(=O)n(C)c(=O)n2C,1.1,-0.1%,10%,2%,12%,0.15,1594,-0.3%
Cc1ccc(CCNC(=O)CCNS(=O)(=O)c2ccc3c(c2)c(=O)n(C)c(=O)n3C)cc1,1.1,-0.9%,2.1%,0%,0%,-0.59,1244,0.7%
O=C(/C=C/c1ccccc1)N/C(=C\c1ccco1)C(=O)NCCO,1.1,2.9%,3.6%,-8%,6%,0.11,1565,-0.4%
COC(=O)c1[nH]c2cc(C)ccc2c1NC(=O)CN1CCCc2ccccc21,1,0.3%,11%,-4%,10%,0.7,1542,-0.3%
COC(=O)C1=C(C(=O)c2ccc(C)cc2)C(c2ccccc2)n2nnnc2N1 (stereo not given),1.1,-0.7%,0.3%,-4%,7%,0.94,1545,/
CCCC(O)(CCC)C(=O)NNc1ccccc1,1.1,2.9%,-0.6%,11%,3%,0.53,1386,0.0%
Cc1ccccc1OCCCC(=O)NCc1ccco1,1.1,1.6%,2.2%,1%,6%,-0.02,1510,0.4%
CC(C)NC(=O)c1noc2cc([N+](=O)[O-])ccc12,1,1.3%,0.7%,23%,2%,/,/,0.2%
Nc1nnnn1/N=C\c1ccc(Cl)c([N+](=O)[O-])c1,1,2.7%,0.9%,-3%,2%,/,/,-0.1%
CCOc1ccc(N(CCC#N)S(=O)(=O)c2ccc(OC)cc2)cc1,1.1,-1.9%,1.6%,15%,-4%,0.82,1566,/
CN(C)c1cc[n+](CC(=O)Nc2cc(C(F)(F)F)ccc2Cl)cc1,1.1,-2.3%,-0.7%,7%,-3%,/,/,2.2%
Cc1cccc(C(=O)NNC(=O)c2cc3cc4ccccc4nc3s2)c1,1.1,-2.2%,2.2%,-15%,7%,/,/,-0.3%
Cc1ccc(-c2cccc(OC(=O)c3ccccc3F)c2)cc1,1.1,-4.2%,7.7%,1%,1%,/,/,/
Cc1ccccc1NC(=O)Cn1cnc2c1c(=O)n(C)c(=O)n2C,1.1,-0.4%,2.8%,-1%,4%,-0.23,1506,0.0%
Cc1c(Br)c([N+](=O)[O-])nn1C(C)C(=O)Nc1ccc2c(c1)OCO2 (stereo not given),1,-1.7%,2.0%,-2%,3%,-0.5,1149,-0.7%
CCC(=O)Nc1ccc(S(=O)(=O)N2CCN(c3ccc(F)cc3)CC2)cc1,1.1,-1.0%,0.0%,-7%,12%,-0.32,1578,-0.6%
COc1cc(/C=C(/NC(=O)c2ccccc2)C(=O)Nc2ccccc2)c([N+](=O)[O-])cc1OC,1,-1.1%,6.2%,0%,0%,-0.36,1751,/
O=C(NC1CCS(=O)(=O)C1)c1c(NC(=O)C2COc3ccccc3O2)sc2c1CCCC2 (stereo not given),1.1,-0.9%,2.4%,-4%,27%,-0.03,1434,0.0%
Cc1ccc(C(=O)OCn2ncc(Cl)c(Cl)c2=O)cc1,1.1,-7.7%,-2.6%,1%,10%,?,/,-2.2%
Cc1oc(C)c(C(=O)NCCCC(=O)O)c1C(=O)NCCCC(=O)O,1,-0.9%,0.1%,-4%,2%,/,/,1.6%
CC1CCN(C2CCN(S(=O)(=O)c3ccc(F)cc3)CC2)CC1,1,-0.8%,-1.0%,19%,-3%,0.25,1470,-0.3%
Cc1oc2ccc(NS(=O)(=O)c3ccc(C(C)(C)C)cc3)cc2c1C(=O)Nc1ccccc1,1.1,1.8%,2.0%,-8%,4%,0.04,1403,-0.5%
CCOC(=O)c1[nH]c2ccccc2c1NC(=O)c1nonc1C,1.1,-0.8%,2.1%,-3%,12%,-1.5,1113,0.1%
O=C(Nc1nc2ccc(Cl)cc2s1)C1CCCO1 (stereo not given),1.1,-1.8%,1.5%,8%,8%,0.19,824,-0.2%
Clc1ccc(OCc2cnc(Cl)s2)cc1,1.1,1.4%,1.0%,7%,4%,0.22,1688,/
O=C(CSc1nc2c(c(=O)n1-c1ccc(F)cc1)SCC2)N1CCCC1,1,4.6%,0.7%,-4%,15%,/,/,-0.3%
Cc1ccc(NC(=O)COc2ccc(S(=O)(=O)N3CCOCC3)cc2)cc1,1.1,0.2%,0.2%,-5%,0%,-0.29,1475,-0.6%
COC(=O)c1cn[nH]c1NC(=S)Nc1ccccc1C,1.7,-1.4%,-0.9%,-2%,8%,-0.13,1603,0.3%
Cc1c(-n2cc(C(=O)c3cc(Cl)ccc3O)cc(C#N)c2=O)c(=O)n(-c2ccccc2)n1C,1.1,2.6%,0.8%,6%,16%,0.24,1681,0.2%
CCOc1ccc(/C=C/C(=O)c2c(O)c3ccccc3oc2=O)cc1,1.1,-3.9%,-2.9%,5%,9%,/,/,/
N#Cc1ccccc1CN1C(=O)S/C(=C/c2cccn2-c2cccc(C(=O)O)c2)C1=O,0.8,-1.2%,2.0%,-3%,>100µM*,-0.49,1520,-0.1%
COCCNC(=O)c1cc(-c2ccc(OC)c(OC)c2)on1,1,-0.9%,-0.2%,4%,4%,-0.26,1659,0.6%
c1ccc(-c2nc(NCCCn3ccnc3)c3oc4ccccc4c3n2)cc1,1.1,-1.0%,2.6%,-8%,5%,-1.1,1430,0.7%
CC(=O)N1CCN(Cc2nc3cc(NC(=O)c4ccccc4)ccc3n2C)CC1,1,-1.7%,1.7%,4%,1%,3.4*,1507*,0.1%
Cc1ccc(OCc2nnc(SCC(=O)O)n2N)cc1,1,-0.7%,2.1%,7%,18%,/,/,0.7%
Cc1cc(=O)[nH]c(SCC(=O)Nc2ccc(S(=O)(=O)N3CCOCC3)cc2)n1,1.1,-0.8%,1.3%,1%,-2%,-0.12,1497,0.6%
# The list continues:
SMILES,TNAP activation fold,ER stress rescue,RSV CPE inhibition,PhoP inhibition,Large T inhibition,Ins promoter up,Ins promoter up cell count,West Nile antiviral
C=CCN1C(=O)C(CC(=O)Nc2ccccc2)SC1=Nc1ccc(S(N)(=O)=O)cc1 (stereo not given),1.1,-1.2%,1.5%,-9%,15%,0.28,1512,0.6%
CCOC(=O)CN1C(=O)C(Sc2n[nH]c(-c3ccc(C)cc3)n2)CCc2ccccc21 (stereo not given),0.8,-1.3%,5.4%,0%,16%,0.06,1587,1.5%
c1ccc(-c2nc3ccccn3c2NCc2ccc3c(c2)OCO3)cc1,1,0.2%,2.0%,17%,6%,-0.26,1655,-0.3%
Fc1ccccc1CNc1cc(Cl)cc(Cl)c1,1.1,-2.0%,2.5%,-2%,3%,0.22,1430,0.1%
O=C(CSc1nc(-c2ccccc2)cs1)N1CCc2ccccc21,1,2.0%,0.0%,-3%,-2%,-0.34,1605,-0.6%
CCCCNC(=O)CC(=O)Nc1ccccc1C(=O)O,1.1,2.5%,2.9%,-5%,3%,0.8,1557,0.3%
O=C(O)CCN=C1CCCc2ccccc2N1,1,2.4%,2.6%,-8%,6%,/,/,0.2%
COc1ccc(NC(=O)C2(c3ccc(NC(=O)c4ccc(C)cc4)cc3)CCCC2)cc1,1.1,-0.2%,0.7%,-11%,17%,-0.1,1588,0.1%
Cc1cc(C(F)(F)F)nc(SCC(=O)c2cccc([N+](=O)[O-])c2)n1,1.1,-0.5%,0.1%,23%,0%,/,/,-0.7%
O=C(O)/C=C/C(=O)Nc1ccccc1-c1ccccc1,1.1,1.6%,3.3%,-7%,10%,-0.09,1557,-0.2%

# Entries listed so far that have a Cl atom:
SMILES,TNAP activation fold,ER stress rescue,RSV CPE inhibition,PhoP inhibition,Large T inhibition,Ins promoter up,Ins promoter up cell count,West Nile antiviral
CCN(CC)S(=O)(=O)c1ccc(Cl)c(NC(=O)c2ccccc2C)c1,1.1,1.7%,2.3%,-1%,-6%,/,/,-0.3%
CSc1nnc(-c2ccc(Cl)cc2Cl)o1,1.1,0.4%,30%,14%,12%,0.2,1595,0.3%
CCCCn1c(Cl)nc2c1c(=O)n(C)c(=O)n2C,1.1,-0.1%,10%,2%,12%,0.15,1594,-0.3%
Nc1nnnn1/N=C\c1ccc(Cl)c([N+](=O)[O-])c1,1,2.7%,0.9%,-3%,2%,/,/,-0.1%
CN(C)c1cc[n+](CC(=O)Nc2cc(C(F)(F)F)ccc2Cl)cc1,1.1,-2.3%,-0.7%,7%,-3%,/,/,2.2%
Cc1ccc(C(=O)OCn2ncc(Cl)c(Cl)c2=O)cc1,1.1,-7.7%,-2.6%,1%,10%,?,/,-2.2%
O=C(Nc1nc2ccc(Cl)cc2s1)C1CCCO1 (stereo not given),1.1,-1.8%,1.5%,8%,8%,0.19,824,-0.2%
Clc1ccc(OCc2cnc(Cl)s2)cc1,1.1,1.4%,1.0%,7%,4%,0.22,1688,/
Cc1c(-n2cc(C(=O)c3cc(Cl)ccc3O)cc(C#N)c2=O)c(=O)n(-c2ccccc2)n1C,1.1,2.6%,0.8%,6%,16%,0.24,1681,0.2%
Fc1ccccc1CNc1cc(Cl)cc(Cl)c1,1.1,-2.0%,2.5%,-2%,3%,0.22,1430,0.1%
